Compound activity deposited in PubChem BioAssay by Broad Institute.
AF4-AF9 inh: inhibitors of AF4 peptide binding to AF9, primary screen, biochemical, AlphaScreen, biotin-AF4 peptide, FLAG-AF9, single point. 350,000 compounds, 0.47% hits. Protein AF-9 (Homo sapiens), P42568. inhibition, % at 10 µM. AID 651704, 2012;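 active means every replicate reaching a set inhibition limit, whatever the replicate mean, cut at about 25% in these data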;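 further: 0% = plate neutral control median and 100% = total signal loss; the record names both 10 and 1 µM as test concentration; the first replicate is given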
Target sequence (P42568 whole entry, looked up): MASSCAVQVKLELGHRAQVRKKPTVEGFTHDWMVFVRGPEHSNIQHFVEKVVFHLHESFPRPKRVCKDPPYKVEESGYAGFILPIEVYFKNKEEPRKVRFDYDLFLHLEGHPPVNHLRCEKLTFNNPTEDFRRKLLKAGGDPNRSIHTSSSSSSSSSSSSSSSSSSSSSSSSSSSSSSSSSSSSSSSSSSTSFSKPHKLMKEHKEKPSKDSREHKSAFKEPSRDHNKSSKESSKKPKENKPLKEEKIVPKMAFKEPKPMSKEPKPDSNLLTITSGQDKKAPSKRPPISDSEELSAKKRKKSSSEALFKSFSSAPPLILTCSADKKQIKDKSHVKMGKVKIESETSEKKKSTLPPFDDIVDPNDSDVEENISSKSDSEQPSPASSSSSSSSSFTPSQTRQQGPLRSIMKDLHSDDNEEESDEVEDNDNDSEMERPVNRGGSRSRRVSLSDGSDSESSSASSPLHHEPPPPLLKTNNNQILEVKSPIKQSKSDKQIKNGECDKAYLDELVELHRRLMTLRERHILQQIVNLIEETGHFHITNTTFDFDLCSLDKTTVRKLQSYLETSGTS
* hit, by the source's call; & = joins results of further samples. This is a subset. The share of hits here may be higher or lower than overall.

SMILES	AF4-AF9 inh
COc1cccc(S(=O)(=O)N(C)C[C@H]2OCc3ccccc3-c3c(n(C)c4ccccc34)C(=O)N([C@H](C)CO)C[C@H]2C)c1	6.2
O=C(c1cccc(F)c1)N1C[C@@H]2[C@H](c3ccccc31)[C@H](CO)N2C(=O)Cc1ccccc1	-0.4
COc1ccc(CN(C)C[C@H]2Oc3ccc(NC(=O)Cn4cnnn4)cc3CC(=O)N([C@H](C)CO)C[C@@H]2C)cc1	3.1
C[C@H]1CN([C@@H](C)CO)C(=O)c2cccc(NS(=O)(=O)c3cn(C)cn3)c2O[C@@H]1CN(C)C(=O)Nc1ccc2c(c1)OCO2	-3.0
O=C(C[C@H]1CC[C@H]2[C@@H](COC[C@H](O)CN2C(=O)c2cnccn2)O1)N1CCN(c2ccccc2)CC1	3.1
Cc1cccc(S(=O)(=O)N(C)C[C@H]2OCc3ccccc3-c3c(n(C)c4ccccc34)C(=O)N([C@@H](C)CO)C[C@H]2C)c1	4.5
C[C@H](CO)N1C[C@H](C)[C@@H](CN(C)C(=O)Nc2ccc(-c3cccs3)cc2)OCc2cnnn2CCCC1=O	2.3
O=C(NC1CCCCC1)[C@@H]1[C@@H](CO)[C@@H]2Cn3c(cccc3=O)[C@@H]2N1CC1CCCCC1	-1.1
CO[C@H]1CN(C)C(=O)c2cc(NC(=O)c3nc4ccccc4s3)ccc2OC[C@@H](C)N(Cc2ccncc2)C[C@@H]1C	6.2
C[C@@H]1CN([C@H](C)CO)C(=O)c2cccc(NS(=O)(=O)c3cn(C)cn3)c2O[C@@H]1CN(C)S(=O)(=O)c1ccccc1	-2.1
C[C@H](CO)N1C[C@H](C)[C@@H](CN(C)C(=O)Cc2cccnc2)Oc2ncc(-c3cccnc3)cc2C1=O	-1.4
CCCNC(=O)N1CC2(C1)[C@H](c1ccccc1)[C@@H](CO)N2C(=O)c1ccncc1	-2.5
CCCC(=O)N1CC2(CCN(S(=O)(=O)CC)CC2)c2c(n(C)c3cc(OC)ccc23)[C@@H]1CO	-0.3
CCCC(=O)Nc1ccc2c(c1)C(=O)N(C)[C@@H]1CC[C@@H](CC(=O)NCC3CCCCC3)O[C@H]1CO2	0.7
C[C@H](O)C#Cc1ccc2c(c1)O[C@H](CN(C)C(=O)C1CC1)[C@@H](C)CN([C@@H](C)CO)S2(=O)=O	-2.6
C[C@@H]1CCCCO[C@H](CN(C)S(=O)(=O)c2ccccc2)[C@H](C)CN([C@@H](C)CO)C(=O)c2cc(NC(=O)Nc3cccc4ccccc34)ccc2O1	-7.3
C[C@@H]1CN([C@H](C)CO)C(=O)c2cc(NC(=O)Cc3cn(C)c4ccccc34)ccc2O[C@@H]1CN(C)CC1CC1	13
CNC[C@H]1OCCCC[C@H](C)Oc2ccc(N)cc2C(=O)N([C@@H](C)CO)C[C@@H]1C	-4.2
Cc1ccc(S(=O)(=O)Nc2ccc3c(c2)C(=O)N([C@H](C)CO)C[C@H](C)[C@H](CN(C)C(=O)CCCN(C)C)OCCCC[C@H](C)O3)cc1	-1.1
Cc1noc(C)c1NC(=O)N(C)C[C@@H]1Oc2c(NC(=O)Nc3ccc(C(F)(F)F)cc3)cccc2C(=O)N([C@H](C)CO)C[C@H]1C	-1.8
O=C(Nc1cc(F)ccc1F)N[C@H]1CC[C@@H](CC(=O)N2CCc3ccccc3C2)O[C@@H]1CO	-0.7
CCCNC(=O)N1CC2(CN(C(=O)C3CC3)C2)c2c([nH]c3cc(OC)ccc23)[C@@H]1CO	2.5
Cc1noc(C)c1S(=O)(=O)Nc1ccc2c(c1)C(=O)N([C@H](C)CO)C[C@@H](C)[C@H](CN(C)Cc1ccc(C(F)(F)F)cc1)O2	-3.5
COc1ccccc1C(=O)N1C[C@@H]2[C@H](c3ccccc31)[C@H](CO)N2C(=O)C1CC1	-3.0
O=C(C[C@H]1C=C[C@H](NC(=O)Nc2cccc(F)c2)[C@@H](CO)O1)NCC1CCCCC1	-1.1

Continued:
SMILES	AF4-AF9 inh
CC(=O)N(C)C[C@@H]1Oc2cc(-c3ccccc3C)ccc2S(=O)(=O)N([C@@H](C)CO)C[C@H]1C	-0.9
COc1ccc(CC(=O)Nc2cc(S(C)(=O)=O)ccc2Cl)cc1S(=O)(=O)N1CCOCC1	-2.0
Cc1noc(C)c1S(=O)(=O)Nc1ccc2c(c1)C(=O)N([C@H](C)CO)C[C@H](C)[C@H](CN(C)S(=O)(=O)c1ccc(Cl)cc1)OCCCC[C@@H](C)O2	2.1&0.4
CNC[C@@H]1Oc2cc(-c3ccncc3)ccc2S(=O)(=O)N([C@H](C)CO)C[C@H]1C	1.2
O=C(NCCN1CCNC1=O)c1ccc2sc([C@@H]3O[C@H](CO)[C@H](O)[C@H](O)[C@H]3O)nc2c1	-1.1
COc1ccc(-c2ccc3c(c2)[C@@H]2[C@@H](CCN2C(=O)CN2CCOCC2)[C@H](CO)N3)cc1	1.4
CO[C@@H]1CN(C)C(=O)c2ccc(NC(=O)c3ccc(-c4ccccc4)cc3)cc2OC[C@H](C)NC[C@@H]1C	9.8
COc1ccc(NC(=O)N(C)C[C@@H]2Oc3ccc(NC(=O)CCN4CCOCC4)cc3C(=O)N([C@H](C)CO)C[C@@H]2C)cc1	-0.6
O=C(NCCc1ccccc1)[C@H]1[C@H](CO)[C@H]2Cn3c(cccc3=O)[C@@H]1N2Cc1ccccn1	-1.2
Cc1ccc(NC(=O)C2(C)CCN2C2Cc3ccccc3C2)cc1 (stereo not given)	-1.6
CCCNC(=O)N[C@H]1CC[C@@H](CC(=O)NCCc2ccccc2)O[C@@H]1CO	-4.0
COc1ccccc1NC(=O)C[C@H]1CC[C@H]2[C@@H](COc3ccc(NC(=O)C(C)C)cc3C(=O)N2C)O1	2.2
C[C@H]1CN([C@@H](C)CO)C(=O)c2cccc(NC(=O)Nc3ccc(F)cc3)c2O[C@@H]1CN(C)CC1CCCCC1	5.4
CNC[C@H]1Oc2c(NS(C)(=O)=O)cccc2C(=O)N([C@@H](C)CO)C[C@@H]1C	-2.4
CNC(=O)C[C@H]1CC[C@H]2[C@H](COc3ccc(NC(=O)NC4CCCC4)cc3C(=O)N2C)O1	-0.3
C[C@@H]1CN([C@@H](C)CO)C(=O)c2cccc(NC(=O)C3CC3)c2O[C@@H]1CN(C)Cc1ccc(Cl)c(Cl)c1	1.8
CN1C(=O)c2cc(NC(=O)c3ccc(F)cc3)ccc2OC[C@H]2O[C@H](CC(=O)NCC3CC3)CC[C@@H]21	-0.6
C[C@H](CO)N1C[C@H](C)[C@H](CN(C)Cc2ccc(Oc3ccccc3)cc2)OCc2ccccc2-c2c(n(C)c3ccccc23)C1=O	-3.3
CO[C@H]1CN(C)C(=O)c2cc(NS(C)(=O)=O)ccc2OC[C@@H](C)N(CC2CC2)C[C@@H]1C	-0.7
Cc1ccc(-c2cnc3c(c2)C(=O)N([C@@H](C)CO)C[C@@H](C)[C@@H](CN(C)C(=O)Cc2ccncc2)O3)cc1	-0.8
C[C@@H]1CN([C@H](C)CO)C(=O)c2cccc(NC(=O)c3ccc(-c4nccs4)cc3)c2O[C@@H]1CN(C)CC1CC1	2.9
CN1C(=O)c2cc(NC(=O)C3CCCCC3)ccc2OC[C@@H]2O[C@H](CC(=O)NCCc3ccncc3)CC[C@H]21	1.1
CCCC(=O)N1CCC1(C)C(=O)NS(=O)(=O)c1ccccc1 (stereo not given)	3.4
O=C(C[C@H]1C=C[C@H](NS(=O)(=O)c2cccc(F)c2)[C@@H](CO)O1)N1CCCCC1	-1.7
COc1ccc(Cc2c(-c3ccc(F)cc3)nc3c(C)cc(Br)cn23)c(C)c1	-3.2

Next section
SMILES	AF4-AF9 inh
CC=Cc1ccc2n(c1=O)C[C@H]1[C@H](CO)[C@@H](C(=O)N[C@@H](C)c3ccccc3)N(C)[C@@H]21 (mixture of isomers)	-0.4
O=C(C[C@H]1CC[C@H]2[C@@H](COC[C@H](O)CN2C(=O)C2CCCC2)O1)NCc1ccncc1	-0.8
COc1ccc(S(=O)(=O)N(C)C[C@@H]2OCCCC[C@H](C)Oc3ccc(NC(=O)Cc4ccccc4)cc3C(=O)N([C@H](C)CO)C[C@@H]2C)cc1	-0.1
C[C@@H](NC(=O)C[C@H]1CC[C@H](NC(=O)C2CC2)[C@@H](CO)O1)c1ccccc1	-2.1
COc1cccc(-c2cccc(-c3nc(C(=O)NCC(F)(F)F)cc4c3[C@H](CCO)N([S@@](=O)C(C)(C)C)C4)c2)c1	6.1
C[C@H]1CN([C@@H](C)CO)C(=O)c2cc(C#CC3CC3)cnc2O[C@H]1CN(C)C(=O)Nc1ccccc1	0.7
CCCNC(=O)C[C@@H]1CC[C@@H]2[C@@H](COc3ccc(NC(=O)c4ccc(C(F)(F)F)cc4)cc3C(=O)N2C)O1	2.1
CO[C@H]1CN(C)C(=O)c2ccc(NS(C)(=O)=O)cc2OC[C@@H](C)NC[C@@H]1C	-3.1
C[C@H](CO)N1C[C@H](C)[C@@H](CN(C)Cc2ccccc2)OCCCC[C@H](C)Oc2ccc(NS(=O)(=O)c3ccc(F)cc3)cc2C1=O	2.5
CCCCN1CCCCC1(C)C(=O)NCc1cccs1 (stereo not given)	-0.3
CN(C)c1cccc(CNC(=O)c2ccc3sc([C@H]4C[C@H](O)[C@@H](CO)O4)nc3c2)c1	-1.2
C[C@@H]1CN([C@H](C)CO)C(=O)c2cc(C#CCN(C)C)cnc2O[C@H]1CN(C)C(=O)Cc1ccncc1	-0.6
Cc1noc(C)c1NC(=O)Nc1ccc2c(c1)CC(=O)N([C@H](C)CO)C[C@H](C)[C@H](CN(C)Cc1ccc(Cl)c(Cl)c1)O2	1.9
COC(=O)C[C@@H]1CC[C@H]2[C@@H](COC[C@H](O)CN2S(=O)(=O)c2cn(C)cn2)O1	2.3
COc1ccc(CN(C)C[C@@H]2OCCCC[C@H](C)Oc3ccc(NS(=O)(=O)c4ccc(C)cc4)cc3C(=O)N([C@H](C)CO)C[C@@H]2C)cc1	6.5
CCCNC(=O)N1[C@H](C#N)[C@@H](c2ccccc2)[C@H]1CO	-2.3
CN(C)CC#Cc1ccc([C@H]2[C@H](CO)N3CCCCN(C(=O)Nc4ccc(F)cc4)C[C@@H]23)cc1	4.1
O=C(N[C@@H]1CC[C@H](CCNS(=O)(=O)c2cccc(Cl)c2)O[C@@H]1CO)c1ccc(F)cc1	-1.2
Cc1noc(C)c1S(=O)(=O)N(C)C[C@H]1Oc2ccc(NS(=O)(=O)c3cccs3)cc2CC(=O)N([C@H](C)CO)C[C@H]1C	-0.1
CC(C)C[C@@H](COCc1ccc(C(F)(F)F)cc1)N1CCN(C(=O)c2ccc(C(F)(F)F)cc2)CCC1=O	-3.1
C#CCOCCOCCOCCNc1nc(N2CCN(C(=O)[C@H](CCCCN)n3cc(CC(C)O)nn3)CC2)nc(N2CCN(C(=O)[C@H](Cc3ccc(O)cc3)n3cc(CCO)nn3)CC2)n1 (stereo not given in full)	-6.4
COC(=O)C[C@H]1CC[C@H]2[C@@H](COC[C@H](O)CN2C(=O)Nc2cccc(F)c2)O1	-3.9
CO[C@H]1CN(C)C(=O)c2ccc(NC(=O)Nc3cccc(F)c3)cc2OC[C@H](C)N(C(=O)C2CC2)C[C@@H]1C	4.8
O=C1CN(S(=O)(=O)c2ccccc2)C[C@H]2[C@H](c3ccc(C4=CCCC4)cc3)[C@@H](CO)N12	-1.5
O=C(C1CC1)N1CC2(C1)[C@@H](c1ccccc1)[C@@H](CO)N2CC1CCCC1	0.8

Reprinted at random: seven entries already listed
SMILES	AF4-AF9 inh
C[C@H](CO)N1C[C@H](C)[C@@H](CN(C)Cc2ccccc2)OCCCC[C@H](C)Oc2ccc(NS(=O)(=O)c3ccc(F)cc3)cc2C1=O	2.5
COC(=O)C[C@H]1CC[C@H]2[C@@H](COC[C@H](O)CN2C(=O)Nc2cccc(F)c2)O1	-3.9
CN(C)c1cccc(CNC(=O)c2ccc3sc([C@H]4C[C@H](O)[C@@H](CO)O4)nc3c2)c1	-1.2
C[C@@H](NC(=O)C[C@H]1CC[C@H](NC(=O)C2CC2)[C@@H](CO)O1)c1ccccc1	-2.1
Cc1noc(C)c1NC(=O)Nc1ccc2c(c1)CC(=O)N([C@H](C)CO)C[C@H](C)[C@H](CN(C)Cc1ccc(Cl)c(Cl)c1)O2	1.9
O=C(N[C@@H]1CC[C@H](CCNS(=O)(=O)c2cccc(Cl)c2)O[C@@H]1CO)c1ccc(F)cc1	-1.2
O=C(C[C@H]1CC[C@H]2[C@@H](COC[C@H](O)CN2C(=O)C2CCCC2)O1)NCc1ccncc1	-0.8

Back to the main list with the 2 entries that preceded the break.
SMILES	AF4-AF9 inh
O=C1CN(S(=O)(=O)c2ccccc2)C[C@H]2[C@H](c3ccc(C4=CCCC4)cc3)[C@@H](CO)N12	-1.5
O=C(C1CC1)N1CC2(C1)[C@@H](c1ccccc1)[C@@H](CO)N2CC1CCCC1	0.8
CC(C)COC(=O)N1CCCCC1c1cc(C(=O)Nc2ccc3c(c2)OCO3)no1 (stereo not given)	-0.3
O=C(C[C@H]1C[C@@H]2c3cc(NS(=O)(=O)c4ccccc4)ccc3O[C@@H]2[C@H](CO)O1)NC1CCCCC1	2.7
COCC(=O)Nc1ccc2c(c1)C(=O)N(C)[C@H]1CC[C@@H](CC(=O)NCC(F)(F)F)O[C@@H]1CO2	-0.4
CCN1[C@@H]2c3ccc(-c4cccc(F)c4)c(=O)n3C[C@@H]2[C@@H](CO)[C@@H]1C(=O)N1CCCCC1	1.4
COc1ccc(CN2CC3(CN(C(C)=O)C3)c3c([nH]c4cc(OC)ccc34)[C@H]2CO)cc1	2.4
C[C@@H]1CCCCO[C@H](CN(C)C(=O)Nc2ccccc2)[C@H](C)CN([C@@H](C)CO)C(=O)c2cc(NC(=O)Cc3ccccc3)ccc2O1	0.5
CN1C(=O)c2cc(NC(=O)c3cnccn3)ccc2OC[C@H]2O[C@@H](CC(=O)N[C@@H]3CCN(Cc4ccccc4)C3)CC[C@H]21	5.4
